Screening results deposited in PubChem BioAssay by several laboratories.
AF4-AF9 inh = inhibitors of human MLL-AF4/AF9 interaction; inhibition, % at 10 µM; 350,000 tested, 0.47% active; AID 651704; AlphaScreen, biotin-AF4 peptide binding to FLAG-AF9;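 active = every replicate reaching a set inhibition limit, whatever the replicate mean, cut at about 25% in these data; inconclusive = mean inhibition reaches that limit but some replicates miss it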;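 note: 0% = plate neutral control median and 100% = total signal loss; the record names both 10 and 1 µM as test concentration; the first replicate is given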
Target sequence (P42568 whole entry, looked up): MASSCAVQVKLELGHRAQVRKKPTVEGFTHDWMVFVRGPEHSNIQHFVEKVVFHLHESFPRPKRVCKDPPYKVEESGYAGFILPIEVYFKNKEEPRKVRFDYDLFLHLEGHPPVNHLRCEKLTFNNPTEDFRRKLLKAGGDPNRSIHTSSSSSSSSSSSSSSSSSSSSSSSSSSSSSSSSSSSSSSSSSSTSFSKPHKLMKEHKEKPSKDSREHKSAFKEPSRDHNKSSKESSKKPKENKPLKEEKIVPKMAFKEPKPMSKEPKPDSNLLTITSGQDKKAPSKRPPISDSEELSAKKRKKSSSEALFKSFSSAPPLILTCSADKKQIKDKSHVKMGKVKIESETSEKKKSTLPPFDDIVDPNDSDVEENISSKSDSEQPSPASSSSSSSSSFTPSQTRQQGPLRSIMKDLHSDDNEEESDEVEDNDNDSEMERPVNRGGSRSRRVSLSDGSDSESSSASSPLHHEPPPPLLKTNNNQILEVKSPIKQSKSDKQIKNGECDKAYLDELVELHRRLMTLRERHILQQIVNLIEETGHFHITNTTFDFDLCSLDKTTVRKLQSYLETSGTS
FGF22 binding = FGF22 (human) thermal shift binding; Q9HCT0; recombinant FGF22 thermal shift, SYPRO orange fluorescence; percent of sucrose octasulfate shift, DMSO zero; calls only at 9.99 µM; 340,000 tested, 1.5% active; AID 651658;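 active = melting point raised past a set limit in the mean and every replicate; inconclusive = no clear call; three in four hits are not shown here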
Target sequence (Q9HCT0 whole entry, looked up): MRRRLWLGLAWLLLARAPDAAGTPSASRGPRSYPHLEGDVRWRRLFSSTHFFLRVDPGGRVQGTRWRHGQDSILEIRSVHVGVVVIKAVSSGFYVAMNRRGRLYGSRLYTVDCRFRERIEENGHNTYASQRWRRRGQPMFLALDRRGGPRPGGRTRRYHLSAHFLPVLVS
HNF4A DNA FP = change in binding of human HNF4 alpha to DNA; activity change, % at 10 µM; P41235; 360,000 tested, 0.3% active; HNF4a-FITC DNA binding, fluorescence polarization, 1 h; AID 1224865; in the data active = activity change above about 30%, passing the limit was not always enough;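 note: controls were the assay level and a saturating level of protein; the project sought stronger binding though the title names inhibitors; some compounds called inactive have numbers as strong as hits; positive values seem to mean higher polarization but the record does not say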
rRNA inh HTS = inhibitors of bacterial rRNA selective over humanized ribosomes; E. coli WT GFP vs humanized-ribosome RFP mutants, fluorescence, 24 h; active compounds read low; DMSO median 0, no signal -100; GFP signal change (wild-type ribosome), % (test concentration not listed); 350,000 tested, 1.6% active;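 active = significant combined selectivity score with lowered wild-type GFP, culture density cut under 30%, mutant RFP and density less affected; inactive = any of these conditions unmet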; note: one replicate is shown; some compounds called inactive have numbers as strong as hits
ALR inh = inhibitors of human sulfhydryl oxidase ALR; purified ALR, DTT oxidation, H2O2 HRP-luminol luminescence; inhibition, % (concentration not given with the values); 290,000 tested, 3.8% active;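 active = mean and each replicate at 75% or more; inconclusive = only one of the two met; inactive = neither met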;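 note: stock transfer was 7.5 nL into about 7.5 µL; 0% = neutral wells and 100% = wells with inactivated enzyme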
Target sequence (P55789 whole entry, looked up): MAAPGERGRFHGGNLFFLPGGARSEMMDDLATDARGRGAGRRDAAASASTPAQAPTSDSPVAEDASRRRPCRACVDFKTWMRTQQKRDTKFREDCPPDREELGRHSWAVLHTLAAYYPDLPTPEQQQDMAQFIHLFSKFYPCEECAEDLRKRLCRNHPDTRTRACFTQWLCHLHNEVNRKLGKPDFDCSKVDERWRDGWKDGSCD
Vif A3G = HIV-1 Vif–A3G interaction blockers – biochemical, TR-FRET, GST-Vif 1-94, biotin-A3G peptide, dose response retest, primary screen (AID 1117319); TR-FRET GST-Vif / biotin-A3G peptide binding; higher % means a stronger effect; test concentration not given here; strong numbers were not always called active; one-dose inhibition, %; IC50 in µM for titrated hits; 260,000 tested, 0.57% active;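 active = above the screen mean plus three standard deviations and confirmed in dose response; inconclusive = results disagree or hit not tested in dose response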;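 note: Vif residues 1-94 fused to GST binding biotinylated APOBEC3G peptide 110-148; 0% = full assay without inhibitor and 100% = GST in place of GST-Vif; retest series ran down from 100 µM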
E coli growth = E. coli growth inhibition | Escherichia coli growth, OD600, 23 h; active compounds read low | OD600 absorbance (no concentration beside the values) | 330,000 tested, 0.21% active | AID 1053175;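 active = OD600 absorbance below the run mean of sample wells minus 3.6 SD, in any replicate, cut at about 0.56 in these data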;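 note: stock transfer was 300 nL into about 60 µL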
rRNA inh HTS OD600 = also measured in rRNA inh HTS; calls as there; OD600 change, %; measured here: OD600 growth;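 optical density of the mix in the first replicate; 0 = DMSO median and -100 = no signal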
rRNA inh HTS RFP = also measured in rRNA inh HTS; calls as there; RFP signal change, %; measured here: RFP humanized mutant strains;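 first replicate; 0 = DMSO median and -100 = no signal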
An asterisk follows results filed as active; i = inactive; ? = inconclusive; · = no result given; & = joins results of further samples.

Values run as follows: rRNA inh HTS RFP	Vif A3G	AF4-AF9 inh	HNF4A DNA FP	E coli growth	rRNA inh HTS OD600	rRNA inh HTS	ALR inh	FGF22 binding
- O=C(O)CC1SC(=Nc2cccc(C(F)(F)F)c2)NC1=O (stereo not drawn)
  ·	-3%	·	-3.8	0.74	·	·	-3	·
- COc1cc(C(=O)NC2CCN(Cc3nnnn3Cc3cccs3)CC2)cc(OC)c1OC
  ·	-3%&-8%	·	-2.1	0.68	·	·	0	·
- CC(C)CC#Cc1ccc2c(c1)O[C@@H](CN(C)C(=O)C1CCC1)[C@@H](C)CN([C@H](C)CO)S2(=O)=O
  21	·	3.5	·	·	-22	-5	·	i
- NC(=O)CSc1nc2c(sc3ccccc32)c(=O)n1CCCC(=O)NCC1CCCO1 (stereo not drawn)
  2.5	-15%	4.1	6.3	0.68	-4	10	-4	i
- CN(C)/C(=N\S(=O)(=O)c1ccccc1)c1ccc([N+](=O)[O-])cc1
  -4.2	·	-0.2	-1.1	·	-5	5	-4	i
- CN1CCCC(OC(=O)CCCC(=O)OC2CCCN(C)C2)C1 (stereo not drawn)
  ·	19%	·	0.3	0.61	·	·	-17	·
- O=C(CCc1ccccc1)Nc1ccc2c(c1)OCCO2
  ·	78%	·	-1.8	0.73	·	·	2	·
- CCC(=O)N1CCc2cc(S(=O)(=O)NCCN3CCCCC3CC)ccc21 (stereo not drawn)
  ·	1%	·	-1.6	0.75	·	·	-6	·
- Nc1nc(-c2c(Cl)cccc2Cl)no1
  -0.6	-8%	·	3.0	0.68	-2	5	·	i
- Clc1ccccc1N=Nc1ccccn1
  13	>100µM*	-3.6	-37	·	2	56	·	i
- COc1ccc(NC(=O)C(CC(=O)O)C(C)c2ccccc2)cc1 (stereo not drawn)
  2.5	-8%	-2.5	4.3	0.67	1	10	-4	·
- Clc1ccc2c(NCCNC3CCCCC3)ccnc2c1
  2.4	-2%	0.5	0.1	0.68	9	10	·	i
- CCc1ccc(NC(=O)CSCc2nc(N)nc(Nc3ccccc3CC)n2)cc1
  ·	·	·	0.2	0.66	·	·	-4	·
- Cc1cc(C)cc(OCCNC(=O)c2cc(S(=O)(=O)N3CCOCC3)ccc2F)c1
  -1.8	3%	-0.8	0.4	0.67	-11	-1	-1	i
- CCn1nnc2cc(C(=O)Nc3cc(S(C)(=O)=O)ccc3Cl)ccc21
  4.7	13%	0.5	8.2	0.71	7	5	-9	i
- COc1ccc(NC(=O)NCc2cccnc2)cc1
  -2.5	·	-0.5	-0.5	0.7	-1	0	-5	i
- Cc1cccc(NC(=S)NCC(C)CSc2ccc(Cl)cc2)c1 (stereo not drawn)
  0.0	·	-52	-1.0	·	-55	-37	-7	i
- O=C(c1ccc(Br)o1)N(Cc1ccccc1)c1ccccn1
  ·	2%	·	4.0	0.68	·	·	-2	·
- Cc1ccc(NC(=S)N2CCCCC2CO)cc1C (stereo not drawn)
  -2.6	-8%	-1.5	-1.0	0.69	9	6	-10	i
- CCOc1ccc(C(=O)/C=C/Nc2ccc(S(=O)(=O)Nc3onc(C)c3C)cc2)cc1
  ·	7%	·	1.4	0.68	·	·	13	·

Values run as follows: rRNA inh HTS RFP	Vif A3G	AF4-AF9 inh	HNF4A DNA FP	E coli growth	rRNA inh HTS OD600	rRNA inh HTS	ALR inh	FGF22 binding
- COc1ccc(OC)c(S(=O)(=O)NC(=O)C2(C)CCN2C(=O)c2ccco2)c1 (stereo not drawn)
  -1.3	·	-0.4	3.9	·	3	-1	·	i
- Cn1nnnc1SCC(=O)NC1CCCc2ccccc21 (stereo not drawn)
  6.0	18%	1.6	-2.4	0.73	5	1	-7	i
- O=C(c1ccc([N+](=O)[O-])s1)N1CCc2ccccc2C1
  0.1	·	-1.9	0.1	0.7	18	22	-18	i
- O=C(C[C@H]1CC[C@@H](NC(=O)NC2CCCCC2)[C@H](CO)O1)NCc1ccc(F)cc1
  -5.8	·	-1.7	·	·	2	0	·	i
- CCC(=O)NCCNc1ccc([N+](=O)[O-])cn1
  ·	-11%	·	·	0.71	·	·	-1	·
- Cc1nnc(SCC(=O)NC2CC2)n1-c1ccccc1
  5.6	·	-1.4	2.1	0.65	15	17	3	i
- Cc1ccc(NC(=O)C2CCN(S(=O)(=O)c3c(C)noc3C)CC2)cc1C
  -2.4	-4%	-0.8	-1.3	0.69	7	5	-7	i
- COc1ccc(NC(=O)Nc2ccc3c(c2)[C@H]2C[C@H](CC(=O)NCc4ccccn4)O[C@@H](CO)[C@H]2O3)cc1
  1.2	·	-2.6	·	·	11	1	·	i
- N#Cc1cc(C(=O)c2ccccc2OCC(=O)Nc2ccccc2Cl)cn(C2CCCCC2)c1=O
  5.4	1%	3.3	-2.0	0.72	4	-3	-4	i
- O=C(Nc1nc(-c2ccccn2)cs1)c1ccc(-c2ccccc2F)o1
  -16	0%	-1.4	13	0.64	-52	-48	·	i
- CN(C)CC(=O)N1[C@H](C#N)[C@@H](c2ccc(C#CC3CCCCC3)cc2)[C@@H]1CO
  2.5	·	-2.6	·	·	-70	-41	·	i
- O=C(Nc1ccc(Cl)c(Cl)c1)N1CCC(N2CCCCC2)CC1
  ·	2%	·	-1.2	0.7	·	·	-15	·
- Cc1ccc(NC(=O)CSCc2ccc(F)cc2)cc1
  ·	3%	·	-9.5	0.67	·	·	93*	·
- O=C(Cn1nnc(-c2ccccc2)n1)NCc1ccccc1
  ·	-8%	·	2.4	0.66	·	·	0	·
- O=C(COc1ccc(S(=O)(=O)N2CCOCC2)cc1)NC1CC1
  -0.5	·	-1.4	-2.4	0.7	11	4	12	i
- C[C@@H]1CN([C@@H](C)CO)C(=O)c2cc(N(C)C)ccc2O[C@@H](C)CCCCO[C@@H]1CN(C)Cc1ccccc1
  -1.1	·	6.6	·	·	-8	-6	·	i
- O=C(Nc1cccnc1)c1ccc(Cl)c(Cl)c1
  -4.6	·	0.4	2.6	0.65	-1	-5	-11	i
- Cc1nc(-c2ccc(S(=O)(=O)Oc3ccccc3Cl)s2)cs1
  ·	-15%	-0.8	1.7	0.64	·	·	1	i
- C=CCn1c(N)c(C(=O)NCCC2=CCCCC2)sc1=S
  -9.8	6%	-2.1	-2.6	0.65	-8	-11	47	i
- CC1=C(C(=O)N2CCOCC2)CC(CC(=O)NCc2cccs2)C(=O)N1Cc1ccc(C(C)(C)C)cc1 (stereo not drawn)
  4.5	0%	-0.1	1.6	·	-18	-9	·	i

Reprinted from the part before: 2 entries; new compounds follow.
Values run as follows: rRNA inh HTS RFP	Vif A3G	AF4-AF9 inh	HNF4A DNA FP	E coli growth	rRNA inh HTS OD600	rRNA inh HTS	ALR inh	FGF22 binding
- C=CCn1c(N)c(C(=O)NCCC2=CCCCC2)sc1=S
  -9.8	6%	-2.1	-2.6	0.65	-8	-11	47	i
- CC1=C(C(=O)N2CCOCC2)CC(CC(=O)NCc2cccs2)C(=O)N1Cc1ccc(C(C)(C)C)cc1 (stereo not drawn)
  4.5	0%	-0.1	1.6	·	-18	-9	·	i
- Cn1c(Cn2c(=O)sc3ccccc32)nnc1SCC(=O)N1CCCc2ccccc21
  1.8	12%	-0.5	1.9	0.69	2	1	-4	·
- CN(C)C(=O)CSc1nnc(NC(=O)CCc2ccccc2)s1
  1.4	-13%	-5.4	0.0	0.71	-9	-1	·	i
- COc1ccc(N2C(=O)C3C(C2=O)C2C=CC3C23CC3)c([N+](=O)[O-])c1 (stereo not drawn)
  -0.4	0%	2.1	1.5	0.66	10	4	-10	i
- Cc1nccn1CCC(=O)Nc1ccc(Cl)cc1
  -4.7	·	2.5	-0.1	0.66	12	9	-10	i
- O=C1CCN(CCc2ccccc2)CCN1CCSc1ccccc1
  -7.0	·	-3.5	0.5	0.67	-5	-12	·	i
- Cc1ccc(NS(=O)(=O)c2cc(C(=O)N3CCN(CCO)CC3)ccc2C)cc1
  -3.4	·	-1.6	0.2	0.71	0	2	·	i
- COc1cccc(-c2c(NC(C)=O)n(C)c3ccccc3c2=O)c1
  -0.6	-5%	-0.6	2.5	0.65	3	3	0	i
- Cc1cc(-c2csc(N)n2)c(C)n1Cc1ccco1
  4.7	21%	0.5	-0.1	0.65	23	15	-3	i
- Cc1ccccc1S(=O)(=O)N[C@H]1CC[C@@H](CCn2cc(-c3ccc(F)cc3)nn2)O[C@@H]1CO
  0.8	·	-3.5	·	·	-5	-4	·	i
- COc1ccccc1C(=O)Nc1ccc(Cc2ccncc2)cc1
  -5.6	-2%	2.4	-2.7	0.68	-8	-19	4	i
- C[C@H](CO)N1C[C@H](C)[C@H](CN(C)C(=O)c2cccnc2)Oc2cc(C3=CCCC3)ccc2S1(=O)=O
  0.9	·	-4.5	·	·	9	1	·	i
- COc1cccc(C(C)NC(=O)Cc2cccs2)c1 (stereo not drawn)
  2.7	1%	1.4	3.4	0.64	-2	3	-6	i
- Nc1nc(SCC(=O)N2CCCc3ccccc32)n(-c2ccccc2)n1
  0.9	3%	-2.7	-4.2	0.74	-4	-3	-4	i
- C[C@@H]1CN([C@H](C)CO)C(=O)c2cccc(NS(C)(=O)=O)c2O[C@@H]1CN(C)Cc1ccc(Cl)c(Cl)c1
  0.4	·	0.3	·	·	-9	-5	·	i
- CCCCN(C)C(=O)c1sc2ncn(CC)c(=O)c2c1C
  ·	-1%	·	-3.7	0.74	·	·	0	·
- Cc1oc(-c2ccc(Cl)cc2)nc1CS(=O)CC(=O)NCc1ccccc1 (stereo not drawn)
  1.1	·	0.2	-1.1	0.64	4	2	99*	i
- CCOCCOC(=O)C(C)Oc1ccc(Oc2ncc(Cl)cc2Cl)cc1 (stereo not drawn)
  -9.0	·	-7.0	1.1	0.7	-9	-12	-86	i
- COCCNC(=O)C1(C)CCCN(Cc2noc(-c3ccccc3OC)n2)C1 (stereo not drawn)
  -9.4	·	-3.9	-0.2	·	-29	-17	·	i
- COc1cc2c(cc1OC)C(COc1ccccc1OC)N(C(C)=O)CC2 (stereo not drawn)
  1.1	0%	0.1	2.8	0.69	-2	3	·	i
- CC(C)(C)NS(=O)(=O)c1cc(C(=O)O)ccc1Cl
  -0.5	5%	-0.3	5.2	0.67	5	9	2	i

Values run as follows: rRNA inh HTS RFP	Vif A3G	AF4-AF9 inh	HNF4A DNA FP	E coli growth	rRNA inh HTS OD600	rRNA inh HTS	ALR inh	FGF22 binding
- CSCCC(NC(=O)C1CCCC1)c1nnc2ccccn12 (stereo not drawn)
  1.0	-4%	-0.6	1.9	0.71	10	16	-1	i
- O=C(NN=C1CCCC1)c1ccn[nH]1
  -1.7	7%	-7.2	-1.9	0.7	5	11	31	i
- Cc1ccc(OCC(=O)NCC2CCCO2)c(C)c1 (stereo not drawn)
  2.2	7%	1.5	1.2	0.7	2	11	·	i
- Cc1ccccc1-c1ccc([C@@H]2[C@H]3CN(S(=O)(=O)c4cn(C)cn4)CCCCN3[C@H]2CO)cc1
  18	·	1.1	·	·	-44	-1	·	i
- O=C1CCCc2c1nc(-c1ccc(F)cc1)n2O
  -2.1	16%	·	-4.1	0.63	-9	4	-3	i
- Cc1ccc(-c2ccc3c(c2)O[C@@H](CN(C)C(=O)C2CCC2)[C@@H](C)CN([C@@H](C)CO)S3(=O)=O)cc1
  23	·	3.6	·	·	-28	-6	·	i
- CCOC(=O)[C@]12CCC=C1N(Cc1ccc3c(c1)OCO3)C(=O)[C@H](CC(=O)N1CCC(c3ccccc3)CC1)C2
  3.4	·	-5.5	-2.6	·	10	5	·	i
- CC(=O)C1=C(O)C(=O)N(CCc2c[nH]c3ccccc23)C1c1ccc(O)cc1 (stereo not drawn)
  ·	6%	·	1.7	0.73	·	·	11	·
- O=C(NC(NCc1ccccn1)(C(F)(F)F)C(F)(F)F)c1ccco1
  4.9	2%	?	1.4	0.71	4	7	-3	i

An excerpt; rates above refer to the full screens.
